# Assay outcomes (PubChem BioAssay)
# RGS16-Gao: regulators of human RGS16-Galphao interaction; binding response (% of control), % at 10 µM; 0.38% of 220,000 active; bead-based flow cytometry RGS16-Galphao binding, fluorescence; actives lie on both sides; AID 1441;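 active = below 25% or above 175%, edge rows of some plates excepted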;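 also: Galphao activated by GDP with aluminum fluoride before binding; 100% = wells without compound and 0% = beads without RGS; some results beyond the cut were filed as inactive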
# Target sequence (O15492 whole entry, looked up): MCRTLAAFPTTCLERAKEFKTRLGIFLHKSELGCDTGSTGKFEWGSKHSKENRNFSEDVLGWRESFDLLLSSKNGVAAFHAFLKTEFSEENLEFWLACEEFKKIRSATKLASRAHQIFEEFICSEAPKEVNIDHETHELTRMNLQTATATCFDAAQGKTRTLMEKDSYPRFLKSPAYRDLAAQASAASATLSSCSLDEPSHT
# Target sequence (P09471 whole entry, looked up): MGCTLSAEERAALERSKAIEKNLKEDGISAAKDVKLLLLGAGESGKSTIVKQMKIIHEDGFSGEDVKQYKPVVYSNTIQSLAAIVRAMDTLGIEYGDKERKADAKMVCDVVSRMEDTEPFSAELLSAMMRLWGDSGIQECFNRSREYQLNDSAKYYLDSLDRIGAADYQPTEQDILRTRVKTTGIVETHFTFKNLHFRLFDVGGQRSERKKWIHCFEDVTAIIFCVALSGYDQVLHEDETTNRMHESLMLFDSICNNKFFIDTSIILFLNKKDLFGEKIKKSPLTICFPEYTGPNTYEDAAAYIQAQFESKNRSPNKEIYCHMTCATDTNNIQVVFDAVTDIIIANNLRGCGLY
# HSV replic up: HSV replication enhancement. 0.005% of 220,000 active. HSV replication augmentation in cells, fold increase. maximum fold increase;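 active = peak rise of 1.5-fold or more in the series; inconclusive = self-fluorescent or not available for retest; tested in PC3 cells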;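 also: first round at 10 µM; read as green reporter fluorescence; hits show the peak of a series up to 25 µM; 1 = signal of infected wells without compound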
# INS promoter inh: TRM-6 insulin promoter activity inhibition; inhibition, % at 2 µM; AID 1273; 0.9% of 130,000 active; TRM-6 cells (human fetal islet line), insulin promoter-eGFP reporter, imaging; reporter expression induced with tamoxifen;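 active = inhibition above the mean plus 3 SD, with well images judged a real hit on visual review, cut at about 60% in these data, passing the limit was not always enough; inconclusive = inhibition over the cutoff but images rejected on review; inactive = inhibition not above the cutoff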
# GALR2 ag: GALR2 (human) receptor agonism. GALR2-expressing cells, agonist activation read-out. O43603. 0.48% of 140,000 active. activation, %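 (tested at 5 µM)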. AID 803;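 active = above mean plus 3 SD of all compounds, about 5% in these data, not always enough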;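 also: 0% = vehicle buffer wells and 100% = reference agonist at full effect; tested in CHO reporter cells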
# Target sequence (O43603 whole entry, looked up): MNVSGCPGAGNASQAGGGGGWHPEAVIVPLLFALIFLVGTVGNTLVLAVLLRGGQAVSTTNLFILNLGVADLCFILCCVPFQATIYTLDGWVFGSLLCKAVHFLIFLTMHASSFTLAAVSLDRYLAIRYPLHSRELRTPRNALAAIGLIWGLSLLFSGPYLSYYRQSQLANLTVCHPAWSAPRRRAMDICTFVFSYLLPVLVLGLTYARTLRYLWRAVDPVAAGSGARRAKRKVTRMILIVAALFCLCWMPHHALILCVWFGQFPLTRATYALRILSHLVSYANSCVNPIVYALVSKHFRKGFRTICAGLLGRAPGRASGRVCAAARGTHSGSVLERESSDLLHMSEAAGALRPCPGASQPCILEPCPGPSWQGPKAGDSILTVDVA
# PKD1 inh: blocks activity of human protein kinase D1. Q15139. PKD1 kinase fluorescence polarization assay. inhibition, %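 (about 10 µM by stock and volumes)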. 0.056% of 200,000 active;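 active = inhibition of 50% or more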;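 also: controls were vehicle for no effect and a reference inhibitor for full effect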
# INS promoter inh cell count: also measured in INS promoter inh; calls as there; normalized cell count, %; measured here: cell count, toxicity; reference of the scale not given here;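 cells exposed to compound for 48 h; stained nuclei by imaging scaled within each plate; lower means fewer cells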
# HSV replic up primary fold: recorded beside HSV replic up, whose call it bears; fold increase; compound at 10 µM; measured here: primary screen fold increase 10 uM; tested in PC3 cells;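 GFP signal in the first replicate; 1 = infected wells without compound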
# * = called active by the depositor; i = inactive; ? = inconclusive; · = no result given.
nr	SMILES	RGS16-Gao	HSV replic up	HSV replic up primary fold	INS promoter inh	INS promoter inh cell count	GALR2 ag	PKD1 inh
1	CC(=O)SC(C)CC(=O)Nc1ccccc1 (configuration not stated)	104	i	1	·	·	-0.1	7
2	O=C(CN1CCN(C(c2ccccc2)c2ccccc2)CC1)NC(=O)NCc1ccco1	107	i	0.92	-13	80	-1.0	1
3	Cc1c(CNC2CCC(C)CC2)c(C(=O)O)c(C)n1Cc1ccccc1 (configuration not stated)	104	i	1.1	-4	157	0.0	-3
4	CCN(CC1CCCO1)C(=O)CCc1nnc(Cc2ccc3c(c2)OCO3)o1 (configuration not stated)	70	i	0.98	-5	82	·	1
5	CC(=O)CSc1nc(N(C)C)nc(N(C)C)n1	95	i	0.98	5	125	·	1
6	COc1cc(NS(=O)(=O)c2ccc(Nc3nc(-c4cccc([N+](=O)[O-])c4)cs3)cc2)nc(OC)n1	101	i	0.97	25	70	-1.9	-12
7	COc1ccc(-n2cnnc2SCC(=O)Nc2nc(C)c(Cl)cc2Cl)cc1	111	i	1	11	121	-2.7	-2
8	CC(=O)Nc1cccc(Cl)c1C(=O)O	101	i	0.91	·	·	-1.4	4
9	COc1ccc(-c2nnc(SCC(=O)N3CCN(c4ccccc4)CC3)o2)cc1OC	78	·	·	56	72	-1.4	-9
10	CCOC(=O)C1CCN(C(=O)C2CCN(S(=O)(=O)CC)CC2)CC1	98	i	0.89	·	·	-0.9	-14
11	Cc1ccccc1CNC(=O)Cc1cccs1	96	i	1.1	·	·	·	3
12	CCN(CC)C(=O)CSc1nc(-c2cccs2)cc(-c2cccs2)c1C#N	87	i	1.1	-119	94	-1.7	-8
13	O=C(Nc1ccc2nc(-c3cccs3)c(-c3cccs3)nc2c1)NC1CC1	104	i	0.82	17	50	1.4	-9
14	CCOc1ccc(C2c3[nH]c4ccccc4c3CCN2CCCn2cccn2)cc1 (configuration not stated)	104	i	1.1	·	·	·	2
15	COc1ccc(CN2CCNC(=O)C2CC(=O)O)c(OC)c1 (configuration not stated)	105	i	0.92	·	·	-1.9	-8
16	COc1ccc(/C=N/Nc2cc(C)nc(N3CCOCC3)n2)cc1	100	i	1.1	·	·	·	·
17	Cc1nc2ccc(S(=O)(=O)Nc3cc(-c4nc5cccnc5s4)ccc3C)cc2s1	49	i	0.74	-32	113	-0.5	6
18	CC(C)CN(C(=O)COC(=O)c1ccccc1Sc1ccccc1C#N)C1CCS(=O)(=O)C1 (configuration not stated)	104	i	0.94	-50	88	0.4	1
19	CCOc1cc(CN2CCN(c3cccc(C(F)(F)F)c3)CC2)ccc1OC	115	i	1.1	6	64	-2.0	-5
20	CN1CCCCc2c1nc1ccccc1c2N (tested in a mixture with another compound)	101	i	0.89	·	·	-0.6	-9
21	NC(=O)c1ncc(C(F)(F)F)cc1Oc1ccc(C(F)(F)F)cc1	103	i	1.1	·	·	-4.0	10
22	Cc1nn(C)cc1/C=N/NC(=O)c1ccc2c(c1)OCO2	92	i	0.96	·	·	-0.4	-3
23	Cc1nn(C)cc1/C=N/O	95	i	1.1	-29	58	-0.4	-3
24	CCCCC(=O)Nc1ccccc1N1CCN(c2ccccc2)CC1	105	i	0.89	-14	104	·	3
25	CCOc1ccc(S(=O)(=O)NCc2ccc(Cl)cc2)c2cccnc12	109	i	1.1	0	84	-1.2	-9
26	O=C(COC(=O)CC12CC3CC(CC(C3)C1)C2)Nc1cccnc1Cl	103	i	1.1	5	89	·	-5
27	CCCNC(=O)c1nc2ncc(Br)cn2n1	95	i	0.84	·	·	-0.6	-3
28	Clc1ccc(C2=C3CCCCn4c(-c5ccccc5)c[n+](c43)C2)cc1	106	i	1.3	-8	132	-0.9	-3
29	CCOP(=O)(OCC)c1nc(-c2cccc([N+](=O)[O-])c2)oc1N1CCCCC1	98	i	1	29	127	·	9
30	CN1CCN(c2ccccc2/C=N/NC(=O)c2cccnc2)CC1	103	i	1.2	·	·	·	·
31	COc1ccc(NC(=S)Nc2ccc(S(N)(=O)=O)cc2)c(OC)c1	93	i	0.99	·	·	·	-2
32	Cc1ccc(C(=O)NC2CCN(CC(=O)NCc3cccs3)CC2)cc1	96	i	0.88	·	·	·	7
33	O=C(O)c1ccccc1OCCOc1ccccc1C(=O)O	111	i	1	23	74	-1.7	-1
34	Cn1c(=O)c2c(nc(N3CCNCC3)n2Cc2cccc3ccccc23)n(C)c1=O	103	i	0.59	·	·	-2.3	-1
35	CCC(NC(=O)COc1ccc([N+](=O)[O-])cc1)c1ccccc1 (configuration not stated)	103	i	1.2	67*	96*	·	-1
36	COc1ccc(-c2noc(-c3ccc(C)cc3)n2)cc1	109	i	0.96	-1	143	-4.3	1
37	COc1ccc(NC(=O)CCN2CCN(S(=O)(=O)c3cc(Cl)ccc3OC)CC2)cc1	96	i	0.94	8	184	0.6	-10
38	O=C(O)CCN1Cc2ccccc2C1=O	104	i	1	0	64	-2.1	6
39	COC(=O)Cc1cc(OC)c(OC)cc1S(=O)(=O)N(C)C	99	i	1	-41	102	·	1
40	O=C(c1ccc(N2C(=O)CCC2=O)cc1)N1CCN(c2ccccc2)CC1	98	i	1	·	·	-2.2	0
41	O=C(C1CCN(S(=O)(=O)c2ccc(Cl)cc2)CC1)N1CCOCC1	102	i	0.79	-7	96	-1.6	6
42	COc1ccc(/C(C)=N/N2CCOCC2)c(O)c1	101	i	0.95	·	·	·	·
43	CNC(=O)NC(=O)C(C)OC(=O)CCCc1nc2ccccc2s1 (configuration not stated)	100	i	1	·	·	·	-5
44	O=C(NCc1ccc(Cl)cc1)c1ccccc1CCc1ccccc1	96	i	1	-24	98	-2.1	7
45	COc1ccccc1CN(Cc1nc2ccccc2c(=O)[nH]1)C(=O)Nc1cccc(C)c1	104	i	1.2	-25	114	-0.1	-5
46	C=CCn1c(-c2ccc3ncccc3c2)n[nH]c1=S	101	i	1	·	·	·	·
47	Cc1noc(C)c1C(=O)N1CC(C)OC(C)C1 (configuration not stated)	101	i	0.99	25	117	-3.6	3
48	COc1ccc(C(=O)NCCc2ccc(F)cc2)cc1OC	103	i	1.1	24	136	·	6
49	O=C(O)CC1CCS(=O)(=O)C1 (configuration not stated)	98	i	0.81	-118	114	-0.2	-19
50	CCOc1ccc(C(=O)c2cc([N+](=O)[O-])ccc2N2CCOCC2)cc1	104	·	·	-358	9	2.4	-1
51	COc1ccc2c(c1)C(=C(C#N)C#N)C(=O)N2CCc1ccccc1	113	i	1	·	·	·	·
52	CCC(C)(C)NC(=O)CN(Cc1cccs1)C(=O)CNS(=O)(=O)c1ccc(F)cc1	101	i	0.92	·	·	·	2
53	COc1ccccc1S(=O)(=O)Cc1ccc(C(=O)NCC2CCCO2)o1 (configuration not stated)	102	i	1	·	·	·	-3
54	CN(C)S(=O)(=O)c1ccc2c(c1)nc(CCC(=O)Nc1ccc3c(c1)OCO3)n2C	100	i	0.88	27	137	-0.4	2
55	CO/N=C/c1ccc(N2CCN(C(=O)c3ccc(F)cc3)CC2)c([N+](=O)[O-])c1	50	i	0.92	16	105	-0.1	1
56	Nc1nc2n(n1)C(c1cccc(Br)c1)CC(c1ccc(F)cc1)N2 (configuration not stated)	105	i	1.2	·	·	0.1	-18
57	CCOC(=O)N(C)OC(=O)Nc1ccc(Cl)c(Cl)c1	90	i	1.3	-73	128	-1.4	-2
58	C=C(C)CNC(=S)N/N=C/c1ccc([N+](=O)[O-])cc1	102	i	1.1	·	·	·	-1
59	COc1cccc(CNc2ccc([N+](=O)[O-])cc2Cl)c1O	105	i	0.77	41	84	·	-2
60	Cc1cc(NC(=O)c2c(Cl)cccc2Cl)no1	56	i	0.98	·	·	·	-1

# One compound at a time, from the list above. Order of screens: RGS16-Gao	HSV replic up	HSV replic up primary fold	INS promoter inh	INS promoter inh cell count	GALR2 ag	PKD1 inh
# O=C(O)CC1CCS(=O)(=O)C1 (configuration not stated) is entered as 98	i	0.81	-118	114	-0.2	-19
# CCC(C)(C)NC(=O)CN(Cc1cccs1)C(=O)CNS(=O)(=O)c1ccc(F)cc1 is entered as 101	i	0.92	·	·	·	2
# COc1ccc(C(=O)NCCc2ccc(F)cc2)cc1OC is entered as 103	i	1.1	24	136	·	6
# C=CCn1c(-c2ccc3ncccc3c2)n[nH]c1=S is entered as 101	i	1	·	·	·	·

# Going on with the list.
nr	SMILES	RGS16-Gao	HSV replic up	HSV replic up primary fold	INS promoter inh	INS promoter inh cell count	GALR2 ag	PKD1 inh
61	Cc1ccc(S(=O)(=O)Nc2cc(C(C(=O)OC(C)C)C(=O)C(F)(F)F)c(O)c3ccccc23)c(C)c1 (configuration not stated)	95	?	·	·	·	-1.9	-6
62	O=C(COC(=O)c1ccccc1Nc1ccccc1)NCc1ccccc1	102	i	1.2	·	·	0.3	-8
63	CCOC(=O)c1c(-c2ccc(C)cc2)csc1NC1=NS(=O)(=O)c2ccccc21	98	i	0.99	30	95	-1.2	-3
64	O=C(NC1CCCC1)c1cccc(Cl)c1	103	i	0.99	·	·	·	-2
65	Cc1ccc(-c2nc3ccccc3c(=O)n2CCN2CCOCC2)cc1	103	i	0.98	·	·	-0.5	9
66	CCCNCc1cc(OC)c(OCCC)cc1Cl	105	i	0.96	-160	113	-2.7	-1
67	Cc1cc(=O)[nH]c(N/N=C/c2c(O)n(-c3ccccc3)c(=O)c3ccccc23)n1	100	i	1	0	119	0.2	-2
68	COc1ccc(/C=C/C(=O)O)cc1S(=O)(=O)Nc1ccc2c(c1)OCO2	101	i	1.1	·	·	·	·
69	Cc1cc(C)c(OCCCCn2cnc3ccccc3c2=O)c(C)c1	112	i	0.95	-57	77	-2.1	-4
70	O=[N+]([O-])c1ccc(/C=N/N=C/c2ccc([N+](=O)[O-])o2)o1	64	i	0.63	i	2	·	-8
71	O=c1cc(O)c(-c2ccccc2Cl)c(Cl)[nH]1	91	i	1	-31	63	-2.5	2
72	Nc1cccc2cnccc12	100	i	0.74	·	·	-1.2	-1
73	O=C(CCCN1C(=O)c2ccccc2C1=O)Nc1nc2ccccc2[nH]1	108	i	1.1	·	·	·	·
74	CN(C)c1c(-c2ccccc2)cc(-c2ccccc2)[nH]c1=O	102	i	0.98	·	·	·	·
75	CC(C(=O)N/N=C/c1ccc(N(C)C)c(Br)c1)N(c1ccccc1)S(C)(=O)=O (configuration not stated)	84	i	0.94	-8	76	0.1	-2
76	CCOc1ccc(-n2c(SCC(=O)c3c(N)n(C)c(=O)n(C)c3=O)nnc2-c2cccnc2)cc1	113	i	0.95	22	109	1.6	-9
77	O=[N+]([O-])c1ccc(Sc2ncc3ccccn23)nc1	101	i	0.93	·	·	·	·
78	Cc1ccc(C)c(N2C(=O)CC(N3CCN(Cc4ccc5c(c4)OCO5)CC3)C2=O)c1 (configuration not stated)	100	i	0.85	-80	63	-2.3	-14
79	Cc1ccc(S(=O)(=O)N/N=C2/CC(c3ccccc3)Oc3ccccc32)cc1 (configuration not stated)	100	i	0.94	37	200	-0.7	-5
80	CC(C)(C)N1CSC(=S)N(Cc2ccccc2)C1	109	i	1	-4	204	·	5
81	Cc1cc(=O)c2n(Cc3ccc(Cl)cc3)nc[n+]2[nH]1	100	i	0.86	-11	107	-1.6	-3
82	COc1ccc(OC)c(N(CC(=O)NCCSc2ccccc2)S(C)(=O)=O)c1	102	i	0.99	·	·	-1.1	2
83	Cc1cc(Cl)ccc1NC(=S)N1CCC(C(N)=O)(N2CCCCC2)CC1	159	i	1	-30	98	-1.6	1
84	O=C(Nc1cccc(S(=O)(=O)Nc2ccc(Cl)cc2)c1)c1ccc2c(c1)OCCO2	99	i	0.66	·	·	-1.2	-2
85	COC(=O)c1ccccc1NC(=S)NC(=O)COc1ccccc1	70	i	0.99	-26	118	-3.2	-10
86	Nc1nnc(CC(=O)N/N=C\c2cc([N+](=O)[O-])ccc2O)s1	95	i	1	·	·	-2.1	9
87	O=C(CSc1nc2ncccc2[nH]1)c1ccc2c(c1)OCO2	98	i	0.98	·	·	·	·
88	CN(C)c1ccc(CNC23CN4CN(CN(C4)C2)C3)cc1	101	i	0.97	-242	39	-2.7	-4
89	Clc1ccc(C2=CSC3=Nc4cccc5cccc(c45)N23)cc1	130	i	0.88	-44	83	-2.5	-6
90	O=C(NCCCO)C(=O)NCc1ccccn1	102	i	1	·	·	·	0

# 3 entries from above, arranged by the value under GALR2 ag, descending.
item	canonical_smiles	GALR2 ag
82	COc1ccc(OC)c(N(CC(=O)NCCSc2ccccc2)S(C)(=O)=O)c1	-1.1
81	Cc1cc(=O)c2n(Cc3ccc(Cl)cc3)nc[n+]2[nH]1	-1.6
78	Cc1ccc(C)c(N2C(=O)CC(N3CCN(Cc4ccc5c(c4)OCO5)CC3)C2=O)c1 (configuration not stated)	-2.3
